# Mtb MbtI inh: MbtI salicylate synthase inhibition. 100,000 tested, 0.89% active. inhibition, %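 (about 17 µg/mL by stock and volumes)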. P9WFX0. purified MbtI enzyme, fluorescence intensity read-out;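 active = above 50% in both replicates, above 80% if mildly self-fluorescent; inactive = the rest, strongly fluorescent compounds included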;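 note: 0% = mean of negative and 100% = mean of positive controls; one replicate is shown; some compounds called inactive have numbers as strong as hits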
# Target sequence (P9WFX0 whole entry, looked up): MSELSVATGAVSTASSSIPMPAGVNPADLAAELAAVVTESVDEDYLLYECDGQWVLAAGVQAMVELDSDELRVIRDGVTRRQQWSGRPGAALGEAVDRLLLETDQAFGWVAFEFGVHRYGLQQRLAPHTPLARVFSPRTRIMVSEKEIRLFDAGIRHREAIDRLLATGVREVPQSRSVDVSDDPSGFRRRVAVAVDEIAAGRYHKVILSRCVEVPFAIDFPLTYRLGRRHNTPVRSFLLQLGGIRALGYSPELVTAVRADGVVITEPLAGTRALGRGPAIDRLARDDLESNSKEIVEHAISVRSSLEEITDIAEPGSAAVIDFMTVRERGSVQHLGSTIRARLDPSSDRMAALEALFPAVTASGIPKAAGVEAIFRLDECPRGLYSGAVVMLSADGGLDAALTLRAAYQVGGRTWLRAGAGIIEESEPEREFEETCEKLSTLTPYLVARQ
# The depositor's hits bear a star; i = inactive. Only part of the results is shown (hit frequency here may not be typical).
SMILES,Mtb MbtI inh
CN1C2CCC1CC(NCCc1ccccc1)C2 (configuration not stated),-7.8
COC(=O)c1ccc(COc2ccc(C#N)cc2)o1,-3.1
O=C(O)CN1CC(c2ccccc2)CC1=O (configuration not stated),-6.7
CC(=O)Nc1ccc(S(=O)(=O)CCC#N)cc1,-10.4
COC(=O)CCc1n[nH]c(=O)[nH]c1=O,-2.0
O=C1CSC(c2ccccc2)c2c(n(C3CCCC3)[nH]c2=O)N1 (configuration not stated),-3.8
CN(C)CCSc1nc(O)c(-c2ccccc2)c(=O)n1-c1ccccc1,-5.0
Cc1cc(=O)[nH]c(Nc2nc3ccccc3s2)n1,-4.8
CC(=O)Nc1cccc(-c2cnc3ccccc3n2)c1,2.5
CCSc1nc2sc3c(c2c(=O)n1-c1ccccc1)CCN(C)C3,1.6
CC1CC(C)(C)NC(=S)N1CCC(=O)Nc1ccc2c(c1)OCCO2 (configuration not stated),4.2
CC(C)(N)Cc1ccc(Cl)cc1,-8.9
Cc1[nH]c2ccc(CN)cc2c1C,-45.6
COC(=O)c1ccc(-n2nnnc2SCC(=O)c2ccc(O)c(O)c2)cc1,-6.8
C=CCn1c(SCC(=O)N(CC)CC)nc(O)cc1=O,-12.4
Cc1cc(Cl)ccc1OCCn1cncn1,-10.7
COc1ccc(-c2ccc3c(n2)sc2c(O)cc(=O)[nH]c23)cc1,-20.0
Brc1ccc(SCCc2ccncc2)cc1,-5.2
C=CCSc1nc(-c2ccc(OC)cc2)c(C#N)c(=O)n1CC=C,19.3
COc1ccc(-n2cnnn2)cc1,-7.5
C=C(C)c1nc2ccccc2c(=O)o1,15.6
COc1ccc(C(=O)N2CCC(C(N)=O)CC2)cc1,-15.7
Cn1c(=S)sc2c(=O)[nH]c(-c3ccc(Cl)cc3)nc21,-5.7
Cc1cccc(NC(=O)c2cc3ccccc3o2)c1,-1.5
CCCCN(C)C(=O)C1c2ccccc2C(=O)N(Cc2ccc(F)cc2)C1c1ccc(OC)cc1 (configuration not stated),-8.7
OCCOc1ccc(Cl)cc1Cl,-10.8
COC(=O)c1cc(=O)n(C2CC2)c(=NC2CC2)s1,-5.5
C=CCC(Nc1cccc(C)c1)c1ccco1 (configuration not stated),-1.8
Cc1ccc(CC2C(=O)N(c3ccc(C(=O)O)cc3)C(=O)C2C)cc1 (configuration not stated),-12.6
Cn1c(=O)c2c(nc(SCc3ccc(F)cc3)n2Cc2ccccc2)n(C)c1=O,-8.4
NC(=O)c1cc(-c2ccc(Cl)cc2)no1,6.7
C1=CC2CC1CC2CN1CCN(Cc2cccnc2)CC1 (configuration not stated),-10.6
COc1ccc(NC(=O)C2CCOC(C)(C)C2)cc1 (configuration not stated),-7.7
COc1ccc(CNC(=O)C2c3ccccc3C(=O)N(C)C2c2cccs2)cc1 (configuration not stated),0.3
CC(=O)N(CC1CCCO1)C1(C(=O)NC2CCCC2)CCCCC1 (configuration not stated),-0.1
c1ccc(-c2nnc(-c3ccccc3)n2-c2ccncc2)cc1,-11.2
O=C(OCCCc1nc2ccccc2[nH]1)c1cccc(F)c1,-7.4
Cc1cc(N2CCCCC2)nc2ccc(NC(=O)CCC3CCCC3)cc12,72.8
CCOc1ccc2nc(C(=O)N3CCCCCC3)sc2c1,-5.3
COc1ccc(CCNC(=O)CCN2C(=S)NC(C)(C)CC2C)cc1OC (configuration not stated),10.2
COc1ccc(CNC(=O)CN2C(=O)C(C)=C(c3ccc(C)cc3)S2(=O)=O)cc1,-1.5
COc1ccccc1-n1c(SC)nc(O)cc1=O,-11.9
O=C(O)CCCC(=O)Nc1ccn(-c2ccccc2)n1,-5.3
CCCC(=O)c1ccc(N2CCN(CC)CC2)c(F)c1,1.4
CCOc1cccc(=O)c2c(C)[nH]c(C)c12,-4.0

# 6 records picked at random from the list so far, as already listed:
SMILES,Mtb MbtI inh
COc1ccc(CNC(=O)CN2C(=O)C(C)=C(c3ccc(C)cc3)S2(=O)=O)cc1,-1.5
CC(=O)N(CC1CCCO1)C1(C(=O)NC2CCCC2)CCCCC1 (configuration not stated),-0.1
COc1ccc(CCNC(=O)CCN2C(=S)NC(C)(C)CC2C)cc1OC (configuration not stated),10.2
O=C(OCCCc1nc2ccccc2[nH]1)c1cccc(F)c1,-7.4
Cc1cc(N2CCCCC2)nc2ccc(NC(=O)CCC3CCCC3)cc12,72.8
COc1ccccc1-n1c(SC)nc(O)cc1=O,-11.9

# The results go on:
SMILES,Mtb MbtI inh
O=C(NC1=NCCS1)c1ccc2c(c1)OCO2,6.8
O=C(CN1CCCC1)OCCCc1ccccc1,-19.5
C1=C(c2c[nH]c3ccccc23)CCN(Cc2ccccc2)C1,-1.9
CC1CC(C)CC(S(=O)(=O)N2CCC(C(=O)O)CC2)C1 (configuration not stated),-5.9
O=C1CC(c2ccccc2)C(C(=O)O)N1 (configuration not stated),-4.0
Cc1c(CCN)c2cccc3c2n1CCC3,-6.7
COc1ccc(Nc2ncc(C(=O)O)c3ccccc23)cc1,-0.3
CCc1nn2c(C)cc(C)nc2c1C,-4.7
O=C(COc1ccc(Br)cc1Br)NCCc1ccccc1,-0.9
Cc1ccc(S(=O)(=O)N(CCC#N)CCN2CCCC2)cc1,-5.0
COc1ccc(Cc2nnc(N)s2)cc1OC,-8.1
CC(=O)Nc1ccc(Oc2cc(C#N)c(C#N)cc2N2CCCCCC2)cc1,-3.1
CCC1CC(C)(C(=O)Nc2ccc(S(N)(=O)=O)cc2)OC1=O (configuration not stated),-2.9
COc1ccccc1NC(=O)CCCc1ccccc1,0.1
Nc1ncnc2c1c1nc3ccccc3nc1n2Cc1ccccc1,-1.3
C=C1OC(=O)OC1(C)CCc1ccccc1 (configuration not stated),-10.8
O=C(c1ccccc1N1C(=O)c2cccc3cccc(c23)C1=O)N1CCOCC1,-27.4
Cc1ccc(Cc2c(C)nc3c(C(=O)O)cnn3c2C)cc1,-14.3
CN(c1nnc(N)s1)C1CCCCC1,6.8
CCN(CC)CCSc1nc2ccccc2[nH]1,-9.3
c1ccc(CC(NCc2ccco2)c2ccccc2)cc1 (configuration not stated),-8.7
O=c1[nH]n(Cc2ccccc2)c2ccccc12,i
O=C1c2ccccc2C(=O)N1Cc1nc2ccccc2c(=O)n1-c1ccncc1,0.8
CSc1cc(-c2ccccc2)[o+]c(-c2ccccc2)c1,4.5
CC(=O)OC1COC(n2ccc3ccccc32)C(OC(C)=O)C1OC(C)=O (configuration not stated),-2.1
O=C1c2sc3nc4n(c(=O)c3c2CCC1Sc1ccccc1)CCCCC4 (configuration not stated),-7.5
COc1ccc(OCCCn2ccnc2)cc1,-11.2
CC(C)C(=O)Nc1ccc(Cl)cc1C(=O)O,14.2
OCc1cn(Cc2ccccc2Cl)c2ccccc12,-0.5
CCOC(=O)CN1C(=O)CSc2ccccc21,-4.8
S=c1[nH]nc(-c2cccc(Br)c2)o1,22.1
CCOC(=O)N1CCc2ccccc21,-12.8
O=c1cc(NCc2ccccc2)[nH]c(=O)[nH]1,-5.2
COc1ccc(-c2n[nH]c(=S)o2)cc1,-19.8
Cc1ccc(CS(=O)(=O)Cc2ccc(C(=O)O)o2)cc1,-8.1
c1ccc(CCSc2ncnc3nc[nH]c23)cc1,-7.5
CC(C)(NCc1ccccc1Cl)C(=O)O,-3.8
O=C(CNC(=O)c1cccs1)NC1=NCCS1,0.1
CC(=O)Nc1ncnc2nc[nH]c12,-12.1
CCNS(=O)(=O)c1c(C)cc(N2CCCC2=O)cc1C,-14.4
COc1ccc(C(=O)NCc2ccco2)cc1OC,-8.9
O=C(O)COc1ccc2c(c1)C(=O)c1cc(OCC(=O)O)ccc1-2,6.1
CCCc1nc2ccccc2n2cc3c(=O)n(C)c(=O)n(C)c3c12,-5.5
CNc1nn2nnnc2c2ccccc12,-3.9
CCOC(=O)c1sc2nc(CC(=O)OC)nc(NCC(=O)OC)c2c1C,-35.8
Cc1ccc(CNCc2ccc3c(c2)OCO3)cc1,-9.7
O=S(=O)(Cc1ccccc1)c1nnnn1-c1ccccc1,-6.2
CNc1nc2[nH]c(=O)cc(O)c2s1,-15.5
CCn1c2c(c3cc(C(=O)O)ccc31)CCCC2=O,1.7
CC1C(=O)CCN(CCO)C1C (configuration not stated),-3.1
CNC(=O)c1c(-c2ccccc2)oc2ccc(O)cc12,-120.5
Cc1cc(-c2ccccc2)[o+]c(-c2ccccc2)c1,7.9
Cc1ccc(NC(=O)CSc2nccn2C)cc1,-4.4
N#Cc1c(NC(=O)c2ccc(Cn3cc(Br)cn3)o2)sc2c1CCCCCC2,8.8
COC(=O)c1ccc(N2C(=O)C3ON(c4ccccc4)C(c4ccc(OC)cc4OC)C3C2=O)cc1 (configuration not stated),-2.8
Cc1cccc(C(O)(CCN2CCCCC2)c2ccccc2)c1 (configuration not stated),-7.8
O=C(CCNS(=O)(=O)c1cccc2nsnc12)NC1CCCC1,9.2
O=C(O)C1CCCCC1C(=O)N1CC=C(c2ccccc2)CC1 (configuration not stated),-13.3
CC1/C(=N/O)CC(c2ccccc2)NC1c1ccccc1 (configuration not stated),-5.9
O=C(Nc1ccc2oc(-c3cccnc3)nc2c1)c1ccc(-c2ccc(F)cc2)o1,4.5
# The listing continues:
SMILES,Mtb MbtI inh
CCOc1ccc(NC(=O)C(Cc2ccccc2)NC(=O)C2CCCCC2)cc1 (configuration not stated),-16.4
Cc1c(CO)[nH]c2ccc(F)cc12,-33.3
OCCCc1nc2ccccc2n1Cc1ccc(F)cc1,-12.1
C=CCn1c(O)c(N=O)c2ccccc21,-9.4
COc1ccc(C(=O)CCC(=O)O)c(C)c1,-1.1
Cc1[nH]c2ccc3c(ncn3CCC#N)c2c1C,-34.4
CN1CC=C(/C=C/c2ccccc2)CC1,19.6
COc1ccc(C2C(C(=O)N3CCCCC3)c3ccccc3C(=O)N2c2ccc(OC)cc2)cc1 (configuration not stated),4.7
Cc1cc(SCC(=O)c2ccccc2)n2nc(C)nc2n1,-5.5
C=CCc1cccc2cc(C(=O)NC(C)c3ccccc3)c(=O)oc12 (configuration not stated),-2.7
OCCN1CCN(CCN2CCn3c2nc2ccccc23)CC1,-3.8
COC(=O)CC/C(O)=C1\C(=N)CC(C)(C)CC1=O,-11.2
CC(C)OC(=O)c1cc(NC(=O)C2C3CCC(O3)C2C(=O)O)cc(C(=O)OC(C)C)c1 (configuration not stated),-1.0
N#Cc1cc2c(nc1SCC(=O)N1CCCCC1)CCCCC2,2.3
CC1CN(C(=O)c2ccc3c(c2)OCO3)C(C)CN1C(=O)c1ccc2c(c1)OCO2 (configuration not stated),-8.1
COc1cc(/C=N/O)ccc1OCc1ccc(Cl)cc1,-16.9
O=C(CSc1ccccn1)Nc1ccc(-c2ccc(NC(=O)CSc3ccccn3)cc2)cc1,-7.5
COc1ccc(Cc2nnn(CC(=O)O)n2)cc1,-10.0
CN(Cc1ccccc1)C(=O)C1CCCN(Cc2cc(Br)ccc2O)C1 (configuration not stated),-8.2
O=C1CC(Cc2ccc(Cl)cc2)C(=O)N1Cc1ccccc1 (configuration not stated),-11.2
Cc1cccc(C)c1NC(=O)C1(N(C)C(=O)c2ccc3ccccc3n2)CCCC1,-6.8
CCn1c2ccccc2c2nnc(SCN3C(=O)c4ccccc4C3=O)nc21,-10.3
Nc1ccc(Oc2cccc(Oc3ccc(N)cc3)c2)cc1,-10.5
CN(Cc1ccccc1)C1CCN(Cc2cc(Br)ccc2O)CC1,-5.7
O=C(Nc1cccc(C(=O)N2CCOCC2)c1)c1cncc(Br)c1,4.1
Cc1nn(-c2ccccc2)c2sc(C(=O)n3cccn3)cc12,-10.6
CC(=O)OC1(c2ccccn2)COc2ccccc2O1 (configuration not stated),-6.3
CC1CCCN(S(=O)(=O)c2ccc3[nH]c(=O)cc(C(=O)O)c3c2)C1 (configuration not stated),-14.2
N#CCN1CCCC(C(N)=O)C1 (configuration not stated),-9.3
COc1ccc(NC(=O)C(c2ccc(OC)cc2)N(C)C(=O)Cc2c[nH]c3ccccc23)cc1 (configuration not stated),11.3

# Looked up above.
# `CC1CCCN(S(=O)(=O)c2ccc3[nH]c(=O)cc(C(=O)O)c3c2)C1` (configuration not stated) – Mtb MbtI inh = -14.2
# `CC(=O)OC1(c2ccccn2)COc2ccccc2O1` (configuration not stated) – Mtb MbtI inh = -6.3
# `CCn1c2ccccc2c2nnc(SCN3C(=O)c4ccccc4C3=O)nc21` – Mtb MbtI inh = -10.3
# `O=C1CC(Cc2ccc(Cl)cc2)C(=O)N1Cc1ccccc1` (configuration not stated) – Mtb MbtI inh = -11.2

# Next compounds follow:
SMILES,Mtb MbtI inh
O=C(NC(=O)c1ccccc1)OCC1CCCN2CCCCC12 (configuration not stated),-2.4
Cn1c(SCC(=O)Nc2ccccc2Oc2ccccc2)nc2ccccc2c1=O,-9.3
CC(=O)Oc1cccc(NC(=O)c2ccc3c(c2)C(=O)N(CC(C)C)C3=O)c1,-1.1
Brc1ccc(Cn2nnc(-c3ccc4c(c3)OCO4)n2)cc1,-0.9
O=C(Nc1nccs1)C1COc2ccccc2O1 (configuration not stated),-12.3
COC(=O)CSc1ccc(C#N)c(SCC(=O)OC)c1,-65.7
COC(=O)c1ccc(CN2CCOCC2)o1,-15.4
O=C(NC1CCCC1)c1coc2nc3ccccc3nc12,-16.1
Cc1cc(=O)[nH]c(N2C(=O)c3ccccc3C2=O)n1,-0.7
CCN(CC)c1nc2c(s1)C(=O)NCC(C)(C)C2,2.3
Cc1nnc(SCCn2c(N3CC(C)CC(C)C3)nc3c2c(=O)n(C)c(=O)n3C)s1 (configuration not stated),0.8
COc1cc(Cl)c(C)cc1NC(=S)N(Cc1ccc(C)cc1)Cc1ccco1,10.4
CCN1CCN(c2cc(C)c3cc(NC(=O)CC4CCCCC4)ccc3n2)CC1,-14.6
CC1OC(NCCc2ccccc2)C(O)C(O)C1O (configuration not stated),-5.2

# Part of the list above in order of SMILES length, highest first:
SMILES,Mtb MbtI inh
Cc1nnc(SCCn2c(N3CC(C)CC(C)C3)nc3c2c(=O)n(C)c(=O)n3C)s1 (configuration not stated),0.8
CC(=O)Oc1cccc(NC(=O)c2ccc3c(c2)C(=O)N(CC(C)C)C3=O)c1,-1.1
Cn1c(SCC(=O)Nc2ccccc2Oc2ccccc2)nc2ccccc2c1=O,-9.3
Brc1ccc(Cn2nnc(-c3ccc4c(c3)OCO4)n2)cc1,-0.9
Cc1cc(=O)[nH]c(N2C(=O)c3ccccc3C2=O)n1,-0.7
CC1OC(NCCc2ccccc2)C(O)C(O)C1O (configuration not stated),-5.2
O=C(Nc1nccs1)C1COc2ccccc2O1 (configuration not stated),-12.3
